Screening data as filed in PubChem.
YB-1_expr_inh: inhibitors of YB-1 gene expression, primary screen, cell-based, fluorescence. U2OS, qRT-PCR YB-1 vs CDIP delta delta Cp, 16 h; stronger effect = higher value; zero = DMSO, each unit about twofold. delta delta Cp (YB-1 minus CDIP) (concentration not given with the values). 30,000 compounds, 0.37% hits. AID 434959, 2010;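 active = delta delta Cp rounded down to an integer at or above 3, about 3 SD of DMSO wells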;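 note: higher means less YB-1 transcript or more CDIP transcript relative to DMSO; stock transfer was 100 nL into about 100 µL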
* = called active by the depositor. These rows are one share of the data; rates above refer to the full screens.

SMILES YB-1_expr_inh
COc1ccc(S(=O)(=O)N(C)C[C@@H]2Oc3ncc(C#Cc4cccc(F)c4)cc3C(=O)N([C@H](C)CO)C[C@@H]2C)cc1 -0.079
C[C@H]1CN([C@@H](C)CO)C(=O)CCCn2nncc2CO[C@@H]1CN(C)C(=O)CCC(F)(F)F 0.013
O=C(NO)c1ccc(C(=O)N/N=C/c2ccc(O)c(O)c2)cc1 0.35
C[C@H](CO)N1C[C@H](C)[C@H](CN(C)S(=O)(=O)c2cn(C)cn2)Oc2ncc(-c3cc4ccccc4o3)cc2C1=O -0.31
C[C@@H]1CN([C@@H](C)CO)C(=O)CCCn2cc(nn2)CO[C@H]1CN(C)S(=O)(=O)c1cccc(C#N)c1 -0.26
C[C@@H]1CN([C@@H](C)CO)C(=O)CCCn2cc(nn2)CO[C@H]1CN(C)C(=O)Nc1ccccc1 0.13
COc1ccc([Si](C)(C)[C@@H]2[C@@H](CCO)O[C@]3(C(=O)N(Cc4ccccc4)c4ccc(N5CCOC5=O)cc43)[C@H]2C)cc1 0.25
CN(C)CCCNC(=O)[C@@]1(c2ccc([N+](=O)[O-])cc2)CC(=O)N(C2CCCCC2)[C@@H]1c1ccc(CO)cc1I 0.15
COc1ccc(S(=O)(=O)NC2CCN(Cc3cccc(OCCO)c3)CC2)cc1 -0.26
C[C@@H]1CN([C@@H](C)CO)C(=O)CCCn2nncc2CO[C@@H]1CN(C)C -0.11
COc1cc(/C=N/NC(=O)CCCCCCC(=O)Nc2ccccc2O)ccc1O 0.17
C[C@H]1CN([C@@H](C)CO)C(=O)CCCn2nncc2CO[C@H]1CN(C)C(=O)c1ccncc1 -0.13
COC(=O)CCCCCCC(=O)N/N=C/c1ccc(NC(=O)OC(C)(C)C)cc1 0.17
C[C@H](CO)N1C[C@H](C)[C@@H](CN(C)S(=O)(=O)c2ccc(Cl)cc2)OCc2cn(nn2)CCCC1=O -0.14
C[C@H]1CN([C@@H](C)CO)C(=O)CCCn2cc(nn2)CO[C@@H]1CN(C)C(=O)OCc1ccccc1 0.41
COc1ccc(Br)cc1/C=N/NC(=O)c1ccc(C(=O)NO)cc1 -0.18
C[C@@H]1CN([C@H](C)CO)C(=O)CCCn2nncc2CO[C@H]1CN(C)Cc1ccccc1C(=O)O -0.01
C[C@@H]1CN([C@H](C)CO)C(=O)CCCn2nncc2CO[C@H]1CN(C)C(=O)Nc1ccc(F)cc1 -0.48
COc1ccccc1CN(C)C[C@H]1OCc2cnnn2CCCC(=O)N([C@H](C)CO)C[C@H]1C -0.25
C[C@@H]1CN([C@H](C)CO)C(=O)CCCn2nncc2CO[C@@H]1CN(C)C(=O)Nc1ccccc1C(F)(F)F -0.21
C[C@@H]1CN([C@H](C)CO)C(=O)CCCn2cc(nn2)CO[C@@H]1CN(C)C(=O)NC1CCCC1 0.0039
O=C(O)CCCCCCC(=O)N=NC=C1C=CN(O)C=C1 -0.13
C[C@@H]1CN([C@H](C)CO)C(=O)CCCn2cc(nn2)CO[C@H]1CN(C)Cc1cccc(C(F)(F)F)c1 -0.13
C[C@@H]1CN([C@@H](C)CO)C(=O)CCCn2nncc2CO[C@@H]1CN(C)Cc1ccc2c(c1)OCCO2 -0.11
C[C@@H]1CN([C@H](C)CO)C(=O)CCCn2cc(nn2)CO[C@H]1CN(C)Cc1cccnc1 -0.13
C[C@H](CO)N1C[C@H](C)[C@H](CN(C)S(=O)(=O)c2cccc(F)c2)OCc2cn(nn2)CCCC1=O -0.047
O=C(N1CCOCC1)[C@@]1(CCS(=O)(=O)c2ccccc2)COC(c2ccc(OCCCO)cc2)=N1 0.88

In the list so far, nine have a halogen:
SMILES YB-1_expr_inh
COc1ccc(S(=O)(=O)N(C)C[C@@H]2Oc3ncc(C#Cc4cccc(F)c4)cc3C(=O)N([C@H](C)CO)C[C@@H]2C)cc1 -0.079
C[C@H]1CN([C@@H](C)CO)C(=O)CCCn2nncc2CO[C@@H]1CN(C)C(=O)CCC(F)(F)F 0.013
CN(C)CCCNC(=O)[C@@]1(c2ccc([N+](=O)[O-])cc2)CC(=O)N(C2CCCCC2)[C@@H]1c1ccc(CO)cc1I 0.15
C[C@H](CO)N1C[C@H](C)[C@@H](CN(C)S(=O)(=O)c2ccc(Cl)cc2)OCc2cn(nn2)CCCC1=O -0.14
COc1ccc(Br)cc1/C=N/NC(=O)c1ccc(C(=O)NO)cc1 -0.18
C[C@@H]1CN([C@H](C)CO)C(=O)CCCn2nncc2CO[C@H]1CN(C)C(=O)Nc1ccc(F)cc1 -0.48
C[C@@H]1CN([C@H](C)CO)C(=O)CCCn2nncc2CO[C@@H]1CN(C)C(=O)Nc1ccccc1C(F)(F)F -0.21
C[C@@H]1CN([C@H](C)CO)C(=O)CCCn2cc(nn2)CO[C@H]1CN(C)Cc1cccc(C(F)(F)F)c1 -0.13
C[C@H](CO)N1C[C@H](C)[C@H](CN(C)S(=O)(=O)c2cccc(F)c2)OCc2cn(nn2)CCCC1=O -0.047

Random excerpt: 2 entries already listed
SMILES YB-1_expr_inh
C[C@@H]1CN([C@H](C)CO)C(=O)CCCn2nncc2CO[C@H]1CN(C)Cc1ccccc1C(=O)O -0.01
C[C@@H]1CN([C@H](C)CO)C(=O)CCCn2cc(nn2)CO[C@H]1CN(C)Cc1cccnc1 -0.13
